Bioassay records as filed in PubChem.
RVFV N-RNA FP: RVFV nucleocapsid-RNA interaction inhibition; P21700; RVFV N-RNA binding, fluorescence polarization; active compounds read low; % bound, % (no concentration beside the values); 20,000 tested, 0.1% active;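 active = between 0 and 58% in either replicate with normal brightness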;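 note: 100 nL library stock added to about 12 µL; 100% = protein and probe without compound and 0% = probe alone; numbers are from one replicate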
Target sequence (P21700 whole entry, looked up): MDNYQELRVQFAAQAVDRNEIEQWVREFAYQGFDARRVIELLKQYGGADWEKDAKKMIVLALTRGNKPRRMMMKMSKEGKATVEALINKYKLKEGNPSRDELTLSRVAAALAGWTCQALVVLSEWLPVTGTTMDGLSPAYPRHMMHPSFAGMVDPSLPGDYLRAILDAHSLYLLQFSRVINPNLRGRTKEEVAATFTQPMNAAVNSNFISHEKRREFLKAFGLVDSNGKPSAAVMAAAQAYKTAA
An asterisk follows results filed as active; & = joins results of further samples. Not all compounds are listed; the hit share may differ from the screen's.

SMILES	RVFV N-RNA FP
NC(N)=NCCCC(N)C(=O)O (centres undefined)	96
CCn1cc(C(=O)O)c(=O)c2cc(F)c(N3CCNCC3)nc21	100
O=C1NCCc2[nH]c(-c3ccnc(-c4cnc5ccccc5c4)c3)cc21	99
CC(=O)Nc1ncc([N+](=O)[O-])s1	101
Nc1c2c(nc3ccccc13)CCCC2O (centres undefined)	95&96
COc1ccc(CNc2nc(N(CCO)CCO)nc3c2ncn3C(C)C)cc1	104
CCc1c2c(nc3ccc(OC(=O)N4CCC(N5CCCCC5)CC4)cc13)-c1cc3c(c(=O)n1C2)COC(=O)[C@]3(O)CC	92
CCC(=O)O[C@]1(C(=O)SCF)[C@H](C)C[C@H]2[C@@H]3C[C@H](F)C4=CC(=O)C=C[C@]4(C)[C@@]3(F)[C@@H](O)C[C@@]21C	97
OCc1ccccn1	97
COc1c(O)cc2c(c1O)[C@H]1O[C@H](CO)[C@@H](O)[C@H](O)[C@@H]1OC2=O	105
Cc1cc(=O)n(-c2ccccc2)[nH]1	104
CCc1cncnc1N1CCN(Cc2nc3ccc(C(F)(F)F)cc3[nH]2)CC1	100
CCCCCCCC/C=C\CCCCCCCC(=O)O	95
NC(=NCc1ccccc1)NC(=O)c1nc(Cl)c(N)nc1N	95&88
CCOc1cc2c3c(c1)c(C1=NC(=S)NC1=O)c(O)n3C(C)(C)CC2C (centres undefined)	100
NC(N)=NC(=O)Cc1c(Cl)cccc1Cl	101&92
COc1ccc(CN2CCN(C(c3ccc(F)cc3)c3ccc(F)cc3)CC2)c(OC)c1OC	105&95&99
N.N.N.N.N.N.N.N.N.N.N.N.N.N.O.O.[Cl-].[Cl-].[Cl-].[Cl-].[Cl-].[Cl-].[Ru+4].[Ru+5].[Ru+5]	99
O=C1Cc2c([nH]c3ccc([N+](=O)[O-])cc23)-c2ccccc2N1	120
CN(C)C(=O)[C@H](O)[C@H](Cc1ccccc1)NC(=O)c1cc2cc(Cl)ccc2[nH]1	92
COc1ccccc1OCCNCC(O)COc1cccc2[nH]c3ccccc3c12 (centres undefined)	101&89&95
Cc1cccc(C)c1NC(=O)C1CCCCN1C (centres undefined)	93
CCCCC1C(=O)N(c2ccccc2)N(c2ccccc2)C1=O	93&94

Retrieved by compound from the list above (7):
SMILES	RVFV N-RNA FP
O=C1Cc2c([nH]c3ccc([N+](=O)[O-])cc23)-c2ccccc2N1	120
NC(N)=NCCCC(N)C(=O)O (centres undefined)	96
CCOc1cc2c3c(c1)c(C1=NC(=S)NC1=O)c(O)n3C(C)(C)CC2C (centres undefined)	100
COc1ccc(CNc2nc(N(CCO)CCO)nc3c2ncn3C(C)C)cc1	104
COc1c(O)cc2c(c1O)[C@H]1O[C@H](CO)[C@@H](O)[C@H](O)[C@@H]1OC2=O	105
CCC(=O)O[C@]1(C(=O)SCF)[C@H](C)C[C@H]2[C@@H]3C[C@H](F)C4=CC(=O)C=C[C@]4(C)[C@@]3(F)[C@@H](O)C[C@@]21C	97
COc1ccc(CN2CCN(C(c3ccc(F)cc3)c3ccc(F)cc3)CC2)c(OC)c1OC	105&95&99

An excerpt of these results, bar-delimited.
mol | RVFV N-RNA FP
Cc1cccc(C)c1NC(=O)C1CCCCN1C (centres undefined) | 93
COc1ccc(CNc2nc(N(CCO)CCO)nc3c2ncn3C(C)C)cc1 | 104
CCc1c2c(nc3ccc(OC(=O)N4CCC(N5CCCCC5)CC4)cc13)-c1cc3c(c(=O)n1C2)COC(=O)[C@]3(O)CC | 92
